Source: PubChem BioAssay (ICCB-Longwood Screening Facility, Harvard Medical School)
HCMV UL50-53 inh: inhibitors of HCMV UL50-UL53 interaction, biochemical, HTRF | HCMV UL50-UL53 nuclear egress complex (human cytomegalovirus) | normalized percent inhibition | inhibition, % (no concentration beside the values) | hit rate 0.15% among 190,000 | AID 1918969, 2023;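 active = both replicates at 50% or more, plus weaker picks with an unusually low signal ratio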;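 note: stock transfer was 100 nL into about 20 µL; 0% = negative control wells and 100% = wells with untagged competitor protein; inactives centre near -12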
Sa growth 42C: S. aureus growth inhibition at 42 and 30 °C, primary screen, LtaS inhibitor project, RN4220, two temperatures; AID 720641, 2013; hit rate 0.53% among 170,000; OD600, 20 h, 42 °C; active compounds read low; relative growth, % (test concentration not listed);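 active = growth at 42 °C up to 50% and 20 or more points under that at 30 °C, or under 10% at both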;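 note: 300 nL library stock went into each well; scaled to the means of positive and negative controls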
GIV Gai3 FP: inhibitors of GIV peptide binding to Galpha-i3, primary screen, biochemical, fluorescence polarization, FITC-GIV GBA peptide, rat Galphai3; hit rate 0.42% among 210,000; AID 1224905, 2016; percent of control (FP), % (test concentration not listed); Guanine nucleotide-binding protein G(i) subunit alpha-3 (Rattus norvegicus), P08753; 90 min; active compounds read low; scaled: aluminum fluoride 0%, vehicle 100%;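 active = replicate mean at 85% of control or lower, very high polarization wells dropped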;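 note: lower values mean more displacement of the GIV peptide from Galpha-i3; wells of about 15 µL received 100 nL stock; the first replicate is given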
Target sequence (P08753 whole entry, looked up): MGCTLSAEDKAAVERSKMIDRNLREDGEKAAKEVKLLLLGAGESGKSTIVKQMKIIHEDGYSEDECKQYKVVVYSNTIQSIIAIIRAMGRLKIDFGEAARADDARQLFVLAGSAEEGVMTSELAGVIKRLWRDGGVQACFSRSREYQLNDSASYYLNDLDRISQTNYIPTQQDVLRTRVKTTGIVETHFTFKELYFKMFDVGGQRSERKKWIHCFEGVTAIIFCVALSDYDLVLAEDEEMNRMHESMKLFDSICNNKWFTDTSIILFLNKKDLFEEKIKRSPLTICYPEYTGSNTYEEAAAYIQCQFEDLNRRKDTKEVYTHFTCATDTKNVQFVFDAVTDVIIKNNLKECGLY
Sa growth 42C second temp: further read-out of Sa growth 42C, marked with its call; relative growth, %; measured here: growth at 30 °C;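 optical density after 20 h as mean of two plates; 100% = untreated growth and lower means inhibition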
Active calls of the source: *; / = not tested or not shown; & = joins results of further samples.

Every second line gives: GIV Gai3 FP	Sa growth 42C	Sa growth 42C second temp	HCMV UL50-53 inh
1. CC(C(=O)Nc1ccc(S(N)(=O)=O)cc1)C1SC(=O)NC1=O (stereo unspecified)
 : 106	99	80	-2
2. O=C1NC(c2ccc(F)cc2)(C(F)(F)F)C(=O)N1Cc1ccco1 (stereo unspecified)
 : 104	114	100	-18
3. Cc1oc2ncn3c(C)nnc3c2c1C(=O)NC1CC1
 : 104	82	87	-42
4. CC(C)(C)c1ccc(-c2nnc(-c3ccc(N4CCOCC4)cc3)o2)cc1
 : 110	69	103	-6
5. COc1ccc(-c2coc3c2c(C)cc2oc(=O)c(CC(=O)O)c(C)c23)cc1
 : 101	85	53	-90
6. CCCn1c(=O)c2sccc2n2c(CCC(=O)NCCC3=CCCCC3)nnc12
 : 102	/	/	-20
7. CS(=O)(=O)NN=C1CCCCC1
 : 104	115	107	-17
8. O=C(CCc1ccc(-n2cnc3cccnc32)cc1)NCc1ccccc1Cl
 : 118	/	/	2
9. Cc1nn(-c2ccccc2)c(C)c1C(=O)NCC(c1cccs1)N(C)C (stereo unspecified)
 : /	106	95	5
10. CCOc1ccc(-c2cc(C(=O)NCC3COc4ccccc4O3)c3ccccc3n2)cc1 (stereo unspecified)
 : 100	106	79	/
11. OC1(C#Cc2ccccc2)CCN(Cc2ccccc2)CC1
 : 98	100	85	-9
12. CCc1ccc(C2=Nn3c(C)nnc3SC2)cc1
 : /	95	82	-19
13. Cc1cc(NC(=O)COC(=O)C2=NNC(=O)CC2)no1
 : /	98	89	-6
14. COc1ccc2cc(CN(CC3COCCO3)S(=O)(=O)c3c(C)cc(C)cc3C)c(=O)[nH]c2c1 (stereo unspecified)
 : 102	92	94	-21
15. COc1ccccc1N(Cc1ccccc1O)C(=O)COc1ccccc1
 : /	118	97	9
16. Cc1cc(Oc2c(C)cccc2C)c2ccccc2n1
 : 93	92	97	/
17. O=C(O)c1ccccc1OCC(O)Cn1cnc2ccccc21 (stereo unspecified)
 : 99	100	93	-5
18. Cn1c(=O)[nH]c(=O)c2c1nc1n2CC(c2ccccc2)=NN1
 : 102	/	/	-20
19. COc1ccccc1C(=O)Nc1c(C(=O)N(C)c2ccccc2)sc2nc(C)cc(C)c12
 : 104	105	91	-4
20. CNc1nc(NC(C)(C)C)nc(OCC(F)(F)F)n1
 : 108	112	109	1
21. CCC(=O)N1CCc2cc(OC)c(OC)cc2C1COc1ccc2c(C)cc(=O)oc2c1 (stereo unspecified)
 : 110	91	92	10
22. Cc1cc(NC(=O)NC2CCN(Cc3ccccc3)CC2)c(C(F)(F)F)o1
 : 103	91	82	-24
23. N#Cc1ccsc1NC(=O)CN1CCc2ccccc2C1
 : /	117	98	9
24. Cc1ccc2c(c1)c1c(n2CCN(Cc2ccccc2)Cc2ccccc2)C(=O)CCC1
 : 97	91	81	/
25. CCOC(=O)c1ccc(NC(=O)c2cn(-c3ccccc3)nc2-c2ccc(C)cc2)cc1
 : 107	101	89	-15
26. Cc1ccc(-c2nc(CS(=O)CC(=O)NCc3ccccc3Cl)c(C)o2)cc1 (stereo unspecified)
 : 107	93	86	-33
27. COc1ccc(C(=O)NNc2ncnc3c2cnn3-c2ccccc2)cc1
 : 94	112	85	/
28. N#Cc1cccc(OCc2ccccc2F)c1
 : 107	81	46	8
29. CCOC(=O)C1CCN(C(=O)Cn2ncc3ccccc32)CC1
 : 103&106	116	92	1&-17
30. CCC1(C)CC(/C=N/O)CCO1 (stereo unspecified)
 : 100	110	92	-1

Sorted by molar mass (smallest number first): some entries from above
Every second line gives: GIV Gai3 FP	Sa growth 42C	Sa growth 42C second temp	HCMV UL50-53 inh
20. CNc1nc(NC(C)(C)C)nc(OCC(F)(F)F)n1
 : 108	112	109	1
13. Cc1cc(NC(=O)COC(=O)C2=NNC(=O)CC2)no1
 : /	98	89	-6
23. N#Cc1ccsc1NC(=O)CN1CCc2ccccc2C1
 : /	117	98	9
24. Cc1ccc2c(c1)c1c(n2CCN(Cc2ccccc2)Cc2ccccc2)C(=O)CCC1
 : 97	91	81	/

New compounds follow.
Every second line gives: GIV Gai3 FP	Sa growth 42C	Sa growth 42C second temp	HCMV UL50-53 inh
31. COc1ccccc1NC(=O)CCC(=O)N1CC(C)Oc2ccc(C)cc21 (stereo unspecified)
 : 102	113	93	0
32. CN(C)c1ccc(/C=C2/SC(=Nc3ccccc3Cl)NC2=O)cc1
 : 110	/	/	-12
33. O=C1CC(NNc2ccccc2)C(=O)N1c1cccc(Cl)c1 (stereo unspecified)
 : 102	101	103	-27
34. Clc1ccc(OCc2nc(-c3ccccc3)no2)cc1
 : /	88	93	-8
35. CC1CCC(N2C(=O)c3cc4ccccc4n3CC2(C)C(=O)NC2CCCC2)CC1 (stereo unspecified)
 : 106	/	/	1
36. COc1cc(C(=O)N2CCN(Cc3ccccc3C(F)(F)F)CC2)cc(OC)c1OC
 : 101	91	86	-20
37. CCOc1cc(CO)ccc1OCC(=O)N1CCCCC1
 : /	102	85	-8
38. COc1ccc(NC(=O)COC(=O)CC2Sc3ccccc3NC2=O)cc1 (stereo unspecified)
 : /	99	95	0
39. COc1cc(C2Nc3ccc4ncccc4c3C3=C2C(=O)CCC3)ccc1OC(C)=O (stereo unspecified)
 : 101	90	78	-27
40. CCOC(=O)c1nc(Nc2ccc(F)c(Cl)c2)c2ccccc2n1
 : 106&101	/	/	-11&-16
41. CCc1ccccc1NC(=O)CSc1nc2ccccc2n1CC(=O)N(C)C
 : 103	113	86	-8
42. CCOC(=O)C1=C(CN2CCc3ccccc32)NC(=O)NC1c1ccccc1 (stereo unspecified)
 : 106	120	85	/
43. O=C(CN1C(=O)C2CCCCN2c2ccc(C(=O)N3CCCC3)cc21)NCc1cccc(Cl)c1 (stereo unspecified)
 : 102	98	89	/
44. Cc1nc2nc(-c3ccccc3)nn2c(C)c1CC(=O)N(CCO)Cc1ccccc1
 : 106	/	/	-21
45. O=C(Cn1nnc(-c2cccc(Cl)c2)n1)N1N=C(c2cccs2)CC1c1cccs1 (stereo unspecified)
 : /	99	101	-17
46. Cc1c(-c2ccccc2)[n+](=O)c(-c2ccc(Br)cc2)c(C)n1[O-]
 : 98	99	82	/
47. CCOCCCNC(=O)c1ccc2c(=O)n(CCc3ccc(OC)c(OC)c3)c(=O)[nH]c2c1
 : 100	90	77	/
48. O=C(Nc1cccc(-c2nc3ncccc3o2)c1)c1ccc2c(c1)OCO2
 : 100	96	90	-1
49. O=C(c1cnc2c(c1)c(=O)nc1ccccn12)c1ccccc1O
 : /	103	96	-129
50. CCCCCC(=O)N1CC(C)OC(C)C1 (stereo unspecified)
 : 107	114	90	-2
51. CCCNc1ncnc2c1cnn2-c1ccccc1
 : 104	97	99	2
52. Cc1ccc(NS(=O)(=O)c2c(C)nc3sc4ccccc4n3c2=O)cc1C
 : 106	/	/	-27
53. Cc1ccc(NC(=O)Cn2cc(C(=O)c3cccs3)c3ccccc32)cc1C
 : 103	100	90	4
54. O=C(O)c1ccc(Oc2ccccc2)o1
 : 101	102	88	-17
55. CC1=C(C#N)C(c2ccc(OCc3ccccc3)cc2)C(C#N)=C(C)N1
 : 111	113	106	11
56. Cc1cc(NC(=O)CC(C)(C)C)nc2c1c(=O)oc1ccccc12
 : 111	109	103	0
57. COc1ccc(N2CCN(S(=O)(=O)CCNC(=O)C3CC(=O)N(c4ccccc4)C3)CC2)cc1 (stereo unspecified)
 : 109	104	91	/
58. COC(=O)C1=C(C)NC2=C(C(=O)c3ccccc32)C1c1ccc(OC)cc1 (stereo unspecified)
 : 101	89	93	/
59. Cc1ccc(NC(=O)CSc2ccc(-c3ccccn3)nn2)cc1F
 : 112	83	82	/
60. Cc1nc(NCCc2ccccc2)sc1C(=O)N(C)C
 : /	102	97	-5
61. O=C(CSc1ncn(-c2ccccc2)n1)NCC1CCCO1 (stereo unspecified)
 : 103	123	104	0
62. Cc1ccc(C)c(S(=O)(=O)Nc2ccccc2C(=O)OCC(=O)c2cc(C)n(Cc3ccco3)c2C)c1
 : /	103	95	-3
63. COc1ccc(OC)c(-c2csc(-c3nnn(-c4ccc(C)cc4)c3N)n2)c1
 : 117	/	/	-1
64. O=C(C1COc2ccccc2O1)N1CCN(c2nc3c(F)cccc3s2)CC1 (stereo unspecified)
 : 98	102	84	/
65. CCOC(=O)c1c(NC(=O)/C=C/c2ccc(C)cc2)sc2c1CCCC2
 : 109	94	84	-55
66. CCc1ccc(C2CC(=O)c3c([nH]c(C(=O)OCc4ccc(C)cc4)c3C)C2)cc1 (stereo unspecified)
 : 104	122	92	-3
67. Cc1onc(-c2ccccc2)c1-c1csc(CS(=O)(=O)C(C)(C)C)n1
 : 106	103	95	-18
68. CNC(=S)NNS(=O)(=O)c1ccc(C)cc1
 : 107	95	86	1
69. CCOc1ccc2nc(N3CCCC(C(=O)NCCc4ccc(SC)cc4)C3)sc2c1 (stereo unspecified)
 : 108	96	100	0
70. C=C(C)Cn1c(=O)c2c(nc3n2CCN3c2cc(C)cc(C)c2)n(C)c1=O
 : 98	120	87	/
71. O=C(Cn1nc(-c2ccccc2)c2ccccc2c1=O)Nc1ccc(O)cc1
 : 101	89	83	-10
72. Cc1noc(C)c1C(=O)OC(C)C(=O)c1ccc(C(C)(C)C)cc1 (stereo unspecified)
 : /	80	87	-29
73. O=C(CCC(=O)c1ccc(F)cc1)Nc1cccc(Br)c1
 : /	105	86	-48
74. S=c1nc(C2CCCCC2)[nH][nH]1
 : /	79	71	-2
75. Cc1c(C(=O)NCCN2CCN(C)CC2)sc2nc3n(c(=O)c12)CCCCC3
 : 108	105	99	/
76. CCCCOC(=O)Sc1nc2ccccc2o1
 : 92	82	80	4
77. CC(=O)NCCc1nc2ccccc2n1CCOc1ccccc1
 : 99	87	83	/
78. Cc1nn(-c2ccc(F)cc2)c2sc(C(=O)N(C)C3CCN(C)CC3)cc12
 : /	103	88	-1
79. CC(=O)Nc1ccc(Nc2nc3c(S(=O)(=O)c4cccc(Cl)c4)nnn3c3ccsc23)cc1
 : 102	94	90	/
80. COc1ccc(CCN2C(=O)/C(=C/C3CC=CCC3)SC2=S)cc1OC (stereo unspecified)
 : 101	112	83	/
81. COc1ccc(S(=O)(=O)n2nc(C)c(S(=O)(=O)N3CCC(C)CC3)c2C)cc1OC
 : 104	91	90	/
82. CSc1nc2c(C#N)c(SC)nn2c(-c2ccc(Cl)cc2)c1C#N
 : 98	101	87	5
83. CCOC(=O)c1ccc(NC(=O)N2CCSc3ncccc32)cc1
 : 112	/	/	-33
84. COC(=O)c1c(C)oc2ccc(OCC(=O)OC(C)(C)C)cc12
 : 103	89	79	-12
85. O=C(NCC1CCCO1)c1cnc(N2CCCC2)nc1 (stereo unspecified)
 : 100	97	83	-24
86. Cc1ccc(CNC(=O)CCCCn2c(=O)c3ccccc3n(Cc3ccc(Cl)cc3)c2=O)cc1
 : 102	99	107	14
87. CCc1cc(Sc2ccccc2NC(=O)Nc2ccc(Cl)cc2)n2ncnc2n1
 : 100	/	/	-25
88. CCn1c2ccccc2c2cc(CNCCc3ccc(Cl)cc3)ccc21
 : 109	103	44	/
89. FC(F)(F)c1nnc2c3ccccc3c(Cl)nn12
 : 104	84	82	-4
90. CCCCn1c(COc2ccc(Cl)c(C)c2)nc2cc(S(N)(=O)=O)ccc21
 : /	100	86	2

Next section:
Every second line gives: GIV Gai3 FP	Sa growth 42C	Sa growth 42C second temp	HCMV UL50-53 inh
91. Cc1cc(N2CCN(C)CC2)nc(SC(C(=O)O)c2ccccc2)n1 (stereo unspecified)
 : /	103	95	-12
92. COc1ccc(NC(=O)Cn2cnc3sc(C)c(S(=O)(=O)N4CCN(C)CC4)c3c2=O)cc1OC
 : 101	101	101	36
93. CCOC(=O)c1ccccc1OC(=O)c1c(F)c(F)c(F)c(F)c1F
 : 106	93	100	8
94. COc1ccc(OC)c(S(=O)(=O)N2CC(OCc3ccc(F)cc3Cl)C2)c1
 : 101	/	/	13
95. Cc1ccc(CNC(=O)C2CCCN(c3nn4cc(-c5ccc(C)cc5)nc4s3)C2)cc1 (stereo unspecified)
 : 100	98	94	/
96. Cn1c(=O)[nH]c(=O)c2c1nc1n2CCCN1c1ccc(Cl)cc1
 : 101	/	/	-24
97. O=C(NCCCN1CCCCC1)c1[nH]c2ccccc2c1Sc1ccc(Cl)cc1
 : 102	121	86	-30
